# Compound activity deposited in PubChem by several laboratories.
# Autofluor counter: counter-screen for toxin protease inhibitors: compound fluorescence | fluorescence intensity (no concentration beside the values) | actives 3.1% (n = 360,000) | compound autofluorescence counterscreen, microsphere flow cytometry; active compounds read high;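 active = at least 3 SD above the mean of all compounds, about 16000 in these data; inconclusive = too few beads counted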;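 note: 100 nL of 1 mM stock went into each well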
# Sa RN4220 lethal: kills Staphylococcus aureus RN4220; S. aureus RN4220 growth, OD600, 16 h; inhibition, % (concentration not given with the values); actives 0.33% (n = 330,000); AID 1259311;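 active = z-score of -3 or lower and OD600 up to 0.18 on both plates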;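 note: plate controls were untreated cells for no effect and reference antibiotic for full effect; stock transfer was 100 nL into about 80 µL; one replicate is shown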
# PrP 5UTR inh: suppresses PrP 5' UTR mRNA reporter expression; AID 488862; inhibition, % (no concentration beside the values); cell-based PrP 5' UTR mRNA reporter, plate reader; actives 0.35% (n = 340,000);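 active = every replicate at 50% or more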;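 note: 0 = median of the neutral control wells; tested in H4 reporter cells; numbers are from one replicate; inactives centre near -14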
# BJeLR lethal: BJeLR cell viability loss; BJeLR (HRASV12) viability, CellTiter-Glo ATP luminescence, 48 h; reference of the scale not given here; inhibition, % (concentration not given with the values); actives 0.17% (n = 300,000);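 active = replicate mean above 50%; inconclusive = above 50% but judged a plate artefact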;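 note: 50 nL library stock added to about 25 µL; numbers are from one replicate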
# ugtP null kill: growth inhibition of S. aureus ugtP deletion strain. growth inhibition, % (test concentration not listed). actives 0.54% (n = 330,000). S. aureus RN4220 ugtP deletion, OD600 growth, 16 h; some inactives read as strong as hits. AID 1259309;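 active = z-score under -3 and OD600 up to 0.15 on both plates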;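 note: plate controls were untreated wells for no effect and antibiotic for full effect; wells of about 80 µL received 100 nL stock; the first replicate is given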
# Mtb hypoxia rep: inhibitors of hypoxia-regulated fluorescent reporter in Mycobacterium tuberculosis; M. tuberculosis hypoxia-regulated fluorescent reporter, fluorescence; fluorescence inhibition, % (test concentration not listed); actives 0.1% (n = 300,000); AID 1159583;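 active = 35 to 45% if threefold the growth effect, above 45% if 1.5-fold the growth effect; inactive = the rest, general growth blockers included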;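 note: wells of about 50 µL received 100 nL stock; 0% = vehicle wells and 100% = reference inhibitor wells; whole bacteria with a GFP reporter of the hypoxia response; strong numbers were not always called active; many hits fall short of the cut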
# Mtb hypoxia rep growth: second read-out of Mtb hypoxia rep, no call of its own (marks repeat the call); growth inhibition, %; measured here: M. tuberculosis growth (absorbance);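 0% = vehicle and 100% = reference antibiotic; read after six days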
# Starred values were filed as active, the others as inactive; ? = inconclusive; · = not tested or not shown.
1) CCOc1ccc(CN2C(=O)CC(=O)N(S(=O)(=O)c3ccc(OCC)cc3)C2=O)cc1
2) O=C(O)c1sccc1SCc1ccc(Cl)c(Cl)c1
3) O=C(COc1ccc2ccccc2c1CN1CCOCC1)N1CCc2ccccc21
4) O=C1C=C(Nc2ccc(Cl)cc2Cl)CC(c2ccco2)C1 (centres undefined)
5) CCOC(=O)c1c(C)[nH]c(C(=O)OCC(=O)N2CC(C)OC(C)C2)c1C (centres undefined)
6) O=C(CCSc1ccccc1)Nc1ccccc1Br

assay / compound | 1 | 2 | 3 | 4 | 5 | 6
Autofluor counter | ? | 3466 | 3794 | 4181 | 2963 | 3499
Sa RN4220 lethal | 4.4 | 24 | -1.3 | 7.2 | 4.1 | 16
PrP 5UTR inh | -9 | -19 | -24 | -33 | -1 | -32
BJeLR lethal | -8 | 1 | 3 | 24 | 10 | -11
ugtP null kill | 1 | 4 | -7 | -3 | 0 | 10
Mtb hypoxia rep | 13 | 10 | 2 | 10 | 6 | 1
Mtb hypoxia rep growth | 1 | 7 | -5 | 11 | 11 | 3

7) O=C(NNc1ccccn1)c1ccc(Cl)nc1
8) Cc1ccc(OCC(=O)N(C)Cc2ccccc2)c([N+](=O)[O-])n1
9) COc1ccc(Cl)c(Cn2c(NCCCN(C)C)nc3c2c(=O)n(C)c(=O)n3C)c1
10) S=c1[nH]ncn1-c1ccccn1
11) COc1cc([N+](=O)[O-])cc(/C=N/N(CCC#N)C(C)=O)c1O
12) O=C(CNC(=O)c1ccccc1)OCc1cccc(Br)c1

assay / compound | 7 | 8 | 9 | 10 | 11 | 12
Autofluor counter | 2470 | 2475 | 2196 | 2317 | 4584 | 3210
Sa RN4220 lethal | 0.7 | · | 5.6 | 3.0 | · | 1.6
PrP 5UTR inh | -10 | -2 | -15 | -1 | -9 | -17
BJeLR lethal | -1 | 4 | -5 | -10 | 2 | 0
ugtP null kill | 5 | · | 9 | 5 | · | 46
Mtb hypoxia rep | 4 | · | · | · | · | 18
Mtb hypoxia rep growth | 3 | · | · | · | · | 5

# Given as tab-separated lines: 2 of the compounds above
item	canonical_smiles	Autofluor counter	Sa RN4220 lethal	PrP 5UTR inh	BJeLR lethal	ugtP null kill	Mtb hypoxia rep	Mtb hypoxia rep growth
11	COc1cc([N+](=O)[O-])cc(/C=N/N(CCC#N)C(C)=O)c1O	4584	·	-9	2	·	·	·
12	O=C(CNC(=O)c1ccccc1)OCc1cccc(Br)c1	3210	1.6	-17	0	46	18	5

# The list continues:
13) CCOc1ccc(CCNC(=O)Nc2ccccc2C)cc1OCC
14) Cc1ccc2nc(N3CCN(S(=O)(=O)c4ccc(C)c(Cl)c4)CC3)c(C#N)cc2c1
15) COc1cc(NC(=O)CN2CCN(c3ccccn3)CC2)cc(OC)c1OC
16) Cc1cc(C)nc(N2CCN(C(=O)CCC(=O)Nc3nnc(CC(C)C)s3)CC2)n1
17) CC(=NOCC(=O)NN=Cc1ccc(C)cc1O)c1cccs1
18) COc1cccc(NC(=S)NNC(=O)Cn2nc([N+](=O)[O-])cc2C)c1

assay / compound | 13 | 14 | 15 | 16 | 17 | 18
Autofluor counter | 3366 | 21608* | 4448 | 3959 | · | 3224
Sa RN4220 lethal | 4.1 | 1.7 | -0.5 | 3.5 | 7.2 | 3.9
PrP 5UTR inh | -12 | -14 | -25 | -9 | · | -16
BJeLR lethal | -17 | -9 | 10 | 1 | · | 2
ugtP null kill | 8 | 3 | -2 | 10 | 18 | 3
Mtb hypoxia rep | 10 | -2 | -8 | 6 | 18 | 3
Mtb hypoxia rep growth | 5 | 3 | 1 | 11 | 3 | 1

19) O=C(COc1ccccc1)N(Cc1ccccc1)c1nc(-c2ccccc2)cs1
20) CC(=O)NNC(=O)c1cc2c3ccccc3n(C)c2s1
21) O=C(C1=C(O)C(=O)N(c2ncccn2)C1c1ccc(Cl)cc1)c1ccco1 (centres undefined)
22) CCN(CC)S(=O)(=O)c1ccc2c(c1)nc(SCC(N)=O)n2-c1ccc(OC)cc1
23) COc1cc(CCC(=O)N2CCN(S(=O)(=O)c3ccc(C)cc3)CC2)cc(OC)c1OC
24) CCOc1ccc(C(C(=O)NC2CCCC2)N(CCOC)C(=O)CNC(=O)c2ccco2)cc1 (centres undefined)

assay / compound | 19 | 20 | 21 | 22 | 23 | 24
Autofluor counter | 21962* | 3149 | 2360 | 2099 | 2796 | 3478
Sa RN4220 lethal | -2.7 | 5.9 | -0.6 | 7.0 | 4.1 | 1.5
PrP 5UTR inh | -10 | -11 | -16 | -13 | -7 | -20
BJeLR lethal | 3 | 8 | -9 | -3 | · | -8
ugtP null kill | 1 | 2 | 5 | -7 | 4 | 9
Mtb hypoxia rep | 4 | 14 | · | · | 22 | 7
Mtb hypoxia rep growth | 7 | 9 | · | · | 2 | -2

25) C=C(C)CSc1nnc(CCCCCNC(=O)OC(C)(C)C)o1
26) Cc1nc([N+](=O)[O-])cn1CC(=O)Nc1ccc(F)c(Cl)c1
27) CCCCOc1ccc(C(=O)NCC(=O)NC2CCCCC2)cc1
28) COc1ccc(NC(=O)CSc2cc(C)ccc2C)cn1
29) CCC(=O)Nc1ccc(N2CCN(S(C)(=O)=O)CC2)cc1
30) CCc1ccc(C2=NN(CCC(=O)NC3CCCCCC3)C(=O)CC2)cc1

assay / compound | 25 | 26 | 27 | 28 | 29 | 30
Autofluor counter | 4088 | 3871 | 4024 | 4567 | 9200 | 6289
Sa RN4220 lethal | 0.8 | 4.0 | 1.5 | 4.0 | 9.2 | 1.8
PrP 5UTR inh | -4 | -21 | -18 | -17 | -13 | -11
BJeLR lethal | 7 | -4 | · | 1 | -7 | -10
ugtP null kill | 3 | 10 | 5 | 4 | 0 | 1
Mtb hypoxia rep | 7 | -6 | 10 | 8 | -7 | -1
Mtb hypoxia rep growth | 3 | -10 | 12 | 8 | -3 | 8

# Single records, as listed above. Screens in order: Autofluor counter	Sa RN4220 lethal	PrP 5UTR inh	BJeLR lethal	ugtP null kill	Mtb hypoxia rep	Mtb hypoxia rep growth
# `O=C(CNC(=O)c1ccccc1)OCc1cccc(Br)c1` across the screens: 3210	1.6	-17	0	46	18	5
# `CCOC(=O)c1c(C)[nH]c(C(=O)OCC(=O)N2CC(C)OC(C)C2)c1C` (centres undefined) across the screens: 2963	4.1	-1	10	0	6	11

# Other entries follow:
31) O=C(c1cc2ccccc2o1)N1CCN(c2ccccc2Cl)CC1
32) CCC/C(O)=C1\C(=O)CCCC1=NCCc1c(C)[nH]c2ccc(OC)cc12
33) O=c1[nH]c(NN=Cc2ccccc2)nc2ccccc12
34) CCOC(=O)c1c(NC(=S)Nc2ccccc2)sc2c1CCN(C)C2
35) CCCNc1ncnc2sc(C)c(C)c12
36) O=C(NCCOc1ccccc1)c1ccccc1NC(=O)C1CCCO1 (centres undefined)

assay / compound | 31 | 32 | 33 | 34 | 35 | 36
Autofluor counter | 2283 | 3857 | · | 7515 | 2843 | 3926
Sa RN4220 lethal | 5.9 | 0.3 | 6.1 | -16 | 0.8 | 4.3
PrP 5UTR inh | -18 | -7 | · | -9 | -6 | -11
BJeLR lethal | 4 | -12 | · | -5 | · | -5
ugtP null kill | 4 | 3 | -3 | -6 | 8 | 5
Mtb hypoxia rep | 16 | 8 | 4 | 4 | · | -3
Mtb hypoxia rep growth | 8 | 1 | 5 | 3 | · | 3

37) Cc1ccc(C(=O)Nc2ccncc2)cc1S(=O)(=O)N1CCOCC1
38) CCCC(=O)N1CC(=O)Nc2ccc(F)cc2C1c1ccccc1 (centres undefined)
39) COc1cc(C2NC(=O)CCC2[N+](=O)[O-])c(OC)cc1Br (centres undefined)
40) COc1ccnc(Oc2ccccc2)c1C(N)=O
41) CN(C)/C=C/C(=O)c1cnc(-c2cccc(Cl)c2)s1
42) Clc1ccc(OCc2nc(-c3ccncc3)no2)c(Br)c1

assay / compound | 37 | 38 | 39 | 40 | 41 | 42
Autofluor counter | 4760 | 4076 | 3989 | 4826 | 4682 | 4501
Sa RN4220 lethal | 2.0 | 11 | 3.5 | 3.5 | 3.3 | -1.2
PrP 5UTR inh | -1 | 7 | -10 | -15 | -116 | -88
BJeLR lethal | 5 | 1 | 0 | -2 | 9 | -2
ugtP null kill | -1 | -11 | 5 | -2 | 6 | 0
Mtb hypoxia rep | -1 | 2 | 4 | -1 | 12 | 9
Mtb hypoxia rep growth | -1 | 1 | -1 | 1 | 6 | 14

43) Nn1c(SCc2cccc(F)c2)nnc1-c1cccnc1
44) COc1cc(NC(=O)c2ccno2)cc(C(=O)Nc2cccc(C(F)(F)F)c2)c1
45) Nn1c(Nc2ccccc2)nc2ccccc2c1=O
46) O=[N+]([O-])c1cccc(/C=N\N2CCN(Cc3ccccc3Cl)CC2)c1
47) O=C(NCCNC(=O)c1cc(Cl)ccc1Cl)c1ccco1
48) CCC1(CC)NC(=O)N(CC(=O)OC(C)C(=O)Nc2cc([N+](=O)[O-])ccc2OC)C1=O (centres undefined)

assay / compound | 43 | 44 | 45 | 46 | 47 | 48
Autofluor counter | 6056 | 3887 | 3168 | 4072 | 5643 | ?
Sa RN4220 lethal | 2.6 | 6.9 | 0.5 | · | 3.7 | 1.8
PrP 5UTR inh | -25 | -10 | -16 | -28 | -57 | -3
BJeLR lethal | 7 | -11 | -5 | 28 | 1 | 4
ugtP null kill | 4 | 0 | 2 | · | 2 | -1
Mtb hypoxia rep | 7 | 3 | 3 | · | 6 | -2
Mtb hypoxia rep growth | 4 | -1 | 5 | · | 6 | 0

# Molecules shown so far that contain bromine (four):
6) O=C(CCSc1ccccc1)Nc1ccccc1Br
12) O=C(CNC(=O)c1ccccc1)OCc1cccc(Br)c1
39) COc1cc(C2NC(=O)CCC2[N+](=O)[O-])c(OC)cc1Br (centres undefined)
42) Clc1ccc(OCc2nc(-c3ccncc3)no2)c(Br)c1

assay / compound | 6 | 12 | 39 | 42
Autofluor counter | 3499 | 3210 | 3989 | 4501
Sa RN4220 lethal | 16 | 1.6 | 3.5 | -1.2
PrP 5UTR inh | -32 | -17 | -10 | -88
BJeLR lethal | -11 | 0 | 0 | -2
ugtP null kill | 10 | 46 | 5 | 0
Mtb hypoxia rep | 1 | 18 | 4 | 9
Mtb hypoxia rep growth | 3 | 5 | -1 | 14

# (further entries)
49) COc1cc(OC)c(-c2sc(Nc3ccccc3)n[n+]2-c2ccc(F)cc2)cc1OC
50) COC(=O)c1cc(OC)c(OC)cc1NC(=O)c1c(-c2ccccc2Cl)noc1C
51) CC1=NOC(=O)/C1=C/c1ccc(-c2ccc(Cl)cc2)o1
52) CCCCCCCCn1cc(C(C)=O)c(=O)[nH]c1=O
53) COCC(=O)NCc1ccc2c(c1)OCO2
54) O=C1NC(c2ccccc2)COC(=O)C(Cc2ccc(F)cc2)CCC=CCC1CC(=O)N(CCO)Cc1ccccc1 (centres undefined)

assay / compound | 49 | 50 | 51 | 52 | 53 | 54
Autofluor counter | 3037 | 21663* | 10756 | 6869 | 22350* | ·
Sa RN4220 lethal | 2.3 | 5.6 | 0.9 | 5.8 | · | -9.4
PrP 5UTR inh | -11 | -2 | -27 | -24 | -15 | ·
BJeLR lethal | 5 | 4 | · | -3 | 2 | ·
ugtP null kill | 1 | -3 | 0 | 5 | · | 8
Mtb hypoxia rep | 0 | -4 | 4 | 3 | · | -3
Mtb hypoxia rep growth | 6 | -5 | 7 | 5 | · | -1

55) CN(CCc1ccccn1)C(=O)CC1C(=O)NCCN1Cc1ccccc1C(F)(F)F (centres undefined)
56) CC(=O)NC(CC(=O)c1ccc([N+](=O)[O-])cc1)C(Cl)(Cl)Cl (centres undefined)
57) COc1cc(CN2CC(=O)N(c3ccc(C)c(C)c3)C2=S)cc(OC)c1OC
58) CNc1ccc(NC(C)=O)cc1[N+](=O)[O-]
59) O=[N+]([O-])c1ccc(O)c(C=NNc2ccccc2[N+](=O)[O-])c1

assay / compound | 55 | 56 | 57 | 58 | 59
Autofluor counter | 4457 | 1906 | 2483 | 2395 | ·
Sa RN4220 lethal | 2.7 | 5.7 | 3.9 | -4.7 | 49
PrP 5UTR inh | 1 | -25 | -25 | -9 | ·
BJeLR lethal | -7 | 1 | 0 | 9 | ·
ugtP null kill | 6 | 3 | 5 | 1 | 17
Mtb hypoxia rep | -8 | -9 | 7 | 12 | 6
Mtb hypoxia rep growth | -9 | 1 | 4 | 14 | 7
